HSD17B inhib = inhibitors of human HSD17B10 dehydrogenase; Q99714; recombinant HSD17B10, NADH fluorescence kinetic; many of its hits are not listed in these tables; Potency, µM (doses to about 57.1 µM), inactives show at the top dose activity change, negative = inhibition, most hits filed as inhibitors; 7.6% of 75,000 active; AID 893; active = well fitted inhibition curve with a large enough effect; inconclusive = small, poorly fitted or top-dose-only effect; inactive = no such curve, though single readings can be large or run the other way;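 also: the protocol describes HADH2 (HSD17B10) and not the HSD17B4 of the title; nearly all actives have a fitted effect of over 70% in size; most hits overshoot -100% by far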
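20 nM HADH2, pH 9.0 Tris/Tween; cpd preinc 15 min RT; start w/ 1 mM NAD+ + 90 uM b-hydroxybutyryl-CoA; kinetic fluor ex360/em450 q30s x 4 min; delta last-first.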
Numbers without * were called inactive; ? = inconclusive; [ ] = remark or other dose. % is scaled to controls: 0 for no effect and ±100 for the full control effect; potency is read from the fitted curve at half-maximal effect. This is a subset. The share of hits here may be higher or lower than overall.

SMILES	HSD17B inhib
COC(=O)C(Cc1ccccc1)NC(=O)CSc1nc(C)cc(=O)[nH]1 (stereo not drawn)	3.5%
COc1ccc(C(CNC(=O)c2ccc(S(=O)(=O)N3CCOCC3)cc2)N2CCCCC2)cc1 (stereo not drawn)	6.9%
O=C1CC(c2ccco2)CC2=C1C(c1ccccc1)n1nc(C(F)(F)F)nc1N2 (stereo not drawn)	31.6µM*
COc1cccc(NS(=O)(=O)c2ccc3[nH]cc(C(=O)NC4CC4)c(=O)c3c2)c1	?
COc1cc(NS(=O)(=O)c2ccc(OC)c(C)c2C)c(OC)cc1Cl	-3.7%
O=C(c1ccc(N2C(=O)CCC2=O)cc1)N1CCOCC1	-2.4%
Nc1ccc(N=Nc2ccccc2)c(N)n1	?
Cc1cc(C(=O)N2CCN(c3ncccn3)CC2)sc1-c1ccccc1	-1.7%
CN(Cc1ccco1)C(=O)Cn1c(=O)oc2cc(S(=O)(=O)NCc3ccccc3)ccc21	1.5%
CCOc1cccc(-n2nnnc2-c2ccc(OC)cc2)c1	0.1%
[N-]=[N+]=CC(=O)C(Cc1ccccc1)N1C(=O)c2ccccc2C1=O (stereo not drawn)	0.7%
Nc1nc(CN2CCN(c3ccccc3F)CC2)nc(Nc2ccccc2)n1	-1.5%
O=C(Nc1ccc(Cl)cc1)OCCn1nnnc1C(c1ccccc1)N1CCOCC1 (stereo not drawn)	-0.6%
CC1(C)CC2CC(C)(CN2S(=O)(=O)c2ccc(N)cc2)C1 (stereo not drawn)	4.1%
O=C(C(NS(=O)(=O)c1cccc2nsnc12)c1ccccc1)N1CCN(c2ccccn2)CC1 (stereo not drawn)	-8.1%
O=C(CSc1nnc(CNc2ccccc2)o1)N1CCc2ccccc21	-13.1%
Cn1c(SC/C=C/c2ccccc2)nnc1-c1cccs1	-7.7%
CN1CCc2c(sc(/N=C/c3cccs3)c2C(N)=O)C1	31.6µM*
CC[C@@H](CS(=O)(=O)O)[N+](=O)[O-]	15.2%[11.4 µM]
Clc1ccc(-c2nn3cnnc3s2)c(Cl)c1	7.0%
COc1ccc(OC)c(NC(=O)C2CCCNC2=O)c1 (stereo not drawn)	4.6%
Nc1ncnc2c1ncn2[C@@H]1O[C@@H](C(=O)NC2CC2)[C@H](O)[C@@H]1O	5.8%
CC(=O)C(Sc1ccc2nnc(-c3ccc(F)cc3)n2n1)C(C)=O	-3.6%
CNC(=O)CCc1nc(-c2ccc(C(C)(C)C)cc2)no1	-5.0%
Cc1ccc(-c2nc(C#N)c(NCCN3CCCCC3)o2)cc1	31.6µM*
Cc1cc(C)n(-c2ccc(F)cc2)c(=O)c1C(=O)O	-15.5%
Oc1ccc(Br)cc1/C=N/n1cnc2ccccc21	74.8%[activator]
Cn1c(=O)[nH]c(=O)c2c1nc(Br)n2CCCSc1nc2ccccc2o1	-5.0%
CCOC(=O)N1CCC(NC(=O)Cn2ncc3c2-c2cc(C)ccc2OC3)CC1	2.7%
CCCCCCCC/C=C\CCCCCCCC(=O)NCCc1ccc(O)c(O)c1	-27.0%
O=C(O)Cn1ncc2c1-c1ccoc1CC2	-8.8%
CCOc1ccccc1Nc1nc(N)nc(CSc2nccc(C)n2)n1	7.2%
CCCCOC(=O)n1c(=O)oc2ccccc21	0.3%
Cc1nc2ccc(S(=O)(=O)NC(C(=O)N3CCC(C)CC3)C(C)C)cc2s1 (stereo not drawn)	0.3%
CCOC(=O)Cn1c(=O)oc2cc(S(=O)(=O)NCC3CCCO3)ccc21 (stereo not drawn)	-1.0%
CCOc1cc(CN2CCCCC2)ccc1OC	3.9%
O=C(O)CCC(O)=C1S(=O)(=O)OCCOS1(=O)=O	2.8%[11.4 µM]
Cc1cc2oc(=O)cc(CN3CCCCC3)c2cc1C(C)C	2.1%
Cc1ccc(-n2c3c(cc(C(=O)N4CCN(C)CC4)c2=O)C(=O)CC(C)(C)C3)cc1	-0.2%
COc1ccc(CNC(=O)c2cccc3c2C(=O)N(Cc2cccnc2)C3)cc1	4.3%
COc1cc(C(=O)CSc2nncn2C)cc(OC)c1OC	-17.6%
C=CCNc1ncnc2ccccc12	4.5%
COC(=O)c1ccc2c(c1)C(=O)N(C1CCCCC1)C2=O	8.2%
COC(=O)Cn1cc(C(=O)C2CC2)c2ccccc21	1.2%
CCOCCCNC(=O)C(Cc1ccccc1)NC(=O)c1ccco1 (stereo not drawn)	-7.1%
CC1=C(C(=O)N2CCCCC2)C(c2cccs2)NC(=O)N1 (stereo not drawn)	3.9%
COc1ccc(N2CCN(C(=O)c3ccc(N4C(=O)NC5CC4(C)Oc4ccccc45)cc3)CC2)cc1 (stereo not drawn)	6.2%
Cc1ccc2c(c1)nnn2C1CCN(CC(=O)c2ccc(Cl)cc2)CC1	-9.7%
COc1ccccc1NC(=O)Cn1cnc2c(oc3ccccc32)c1=O	?
O=C(Nc1nccs1)C1CCCN1S(=O)(=O)c1cccc2cccnc12 (stereo not drawn)	-8.1%

Continuation.
SMILES	HSD17B inhib
c1ccc(Oc2nc(Oc3ccccc3)nc(N3CCOCC3)n2)cc1	-5.4%
CN1CCN(C(=O)c2nc3ccc(Cl)cc3[nH]2)CC1	-1.3%
O=C(NCCN1CCCC1)c1ccc(Cc2nc3ccccc3[nH]2)cc1	1.5%
O=C(O)c1ccc(N2C(=O)C3ON(c4ccccc4)C(c4ccccc4F)C3C2=O)cc1 (stereo not drawn)	-10.1%
O=C(Cn1nnc(-c2ccncc2)n1)NCCc1ccccc1	-4.4%
N=C(N)c1ccc(N)cc1	-3.7%
CCC(C)[C@H](NC(=O)NCc1cccs1)C(=O)OC (stereo partly drawn)	10.0%
COc1ccc(NC(=O)C2CCN(c3nc(C)nc4c3CCC4)CC2)cc1	5.2%
Cc1cccc2nc(CSc3nncn3-c3ccccc3)cn12	4.3%
CS(=O)(=O)N(CC(=O)NCc1ccco1)c1cc(C(F)(F)F)ccc1Cl	1.7%

Brought forward from above: 6 compounds, followed by the next part.
SMILES	HSD17B inhib
O=C(Cn1nnc(-c2ccncc2)n1)NCCc1ccccc1	-4.4%
N=C(N)c1ccc(N)cc1	-3.7%
CCC(C)[C@H](NC(=O)NCc1cccs1)C(=O)OC (stereo partly drawn)	10.0%
COc1ccc(NC(=O)C2CCN(c3nc(C)nc4c3CCC4)CC2)cc1	5.2%
Cc1cccc2nc(CSc3nncn3-c3ccccc3)cn12	4.3%
CS(=O)(=O)N(CC(=O)NCc1ccco1)c1cc(C(F)(F)F)ccc1Cl	1.7%
Cc1cc(N2C(=O)C3CC=CCC3C2=O)cc(C)c1Br (stereo not drawn)	3.4%
CCOC(=O)/C=C1\CC(=O)Nc2cc(C)c(C)cc2N1	?
COc1ccc(N2CCN(C(=O)C(Cc3ccccc3)n3cccc3)CC2)cc1 (stereo not drawn)	25.1µM*
COc1ccc(-c2nnc(SCC(=O)N3CCC(Cc4ccccc4)CC3)o2)cc1OC	-1.7%
CC(C)CN1C(=O)c2ccc(C(=O)Nc3nccs3)cc2C1=O	9.9%
COCCCNCC(=O)Nc1ccc(OC(F)(F)F)cc1	-9.5%
Cc1ccc(C)c(N2CCN(C(=O)CN3C(=O)c4ccccc4C3=O)CC2)c1	-3.3%
COC(=O)c1ccc2[nH]c(C)c(CN3CCCC3)c(=O)c2c1	25.1µM*
COc1ccc(CCNS(=O)(=O)c2cccc(F)c2)cc1OC	0.0%
CCc1cccc(OCCCCNCCOC)c1	-2.5%
O=S(=O)(c1cccc2ccccc12)N1CCSC1	-8.1%
O=C(CN1C(=O)COc2ccccc21)N(Cc1ccc2c(c1)OCO2)CC1CCCO1 (stereo not drawn)	5.3%
COC(=O)c1ccc(C(NC(=O)OCc2ccccc2)/C(=C/[C@@H](C)C(=O)NCc2nc3ccccc3s2)c2cccnc2)cc1 (stereo partly drawn)	-1.8%
CNc1ncncc1-c1ccccc1OC	-4.2%
COc1ccc(C2CC(c3cccs3)n3nc(N)nc3N2)cc1 (stereo not drawn)	-5.2%
COC(=O)[C@]1(C)CCC(c2ccc(C)cc2)=C(CC(=O)O)C1	2.5%[11.4 µM]
O=C(Cc1ccccc1)NCCCN1CCN(CCCNC(=O)Cc2ccccc2)CC1	-4.8%
CCc1ccccc1-n1c(SCC(=O)NC)nnc1-c1cccnc1	3.7%
CC(=O)c1c(C)nn(CCC(=O)O)c1C	1.9%
CC(=O)Nc1ccc(-c2nnc(SCC(=O)n3c4c(c5ccccc53)CCCC4)n2C)cc1	13.7%
CN(C)CCCNC(=O)c1ccc(-c2ccccc2)cc1	0.7%
Cc1cnc(NC(=O)CN(C)S(=O)(=O)c2ccc(Cl)cc2)s1	3.8%
Cc1cccc(NCc2ccccc2O)c1	-0.8%
COc1cc2c(cc1OC)CN(Cc1nc3ccsc3c(=O)[nH]1)CC2	-22.8%
CC(=O)Nc1c(C(=O)O)oc2ccc(Cl)cc12	-23.2%
COc1ccc2c(=O)cc(C(F)(F)C(F)(F)F)oc2c1	-21.3%
CCOC(=O)N1CCN(C(=O)c2ccc(Cn3c(=S)[nH]c4cc5c(cc4c3=O)OCO5)cc2)CC1	-5.3%
NC(=O)c1ccc(N2CCCCC2)c(N2C(=O)C3C4C=CC(C4)C3C2=O)c1 (stereo not drawn)	-2.2%
CC1CCN(CCCNC(=O)c2cc3sccc3n2C)CC1	6.7%
CS(=O)(=O)N(CC(=O)N1CCCCCC1)c1ccccc1	3.1%
Cc1cc2c(nc1C)CCCN2C[C@H](C)O/N=C\[C@@H](C)[C@H](OCc1ccccc1)C(C)C	-11.5%[11.4 µM]
Cc1cc(C)c2cc(C(O)c3nnnn3Cc3ccccc3)c(=O)[nH]c2c1 (stereo not drawn)	?
Cn1c(=O)oc2cc(S(=O)(=O)N3CCCC(C(=O)N4CCn5c4nc4ccccc45)C3)ccc21 (stereo not drawn)	5.1%
COCC(=O)n1nc(NCc2ccc(OC)cc2)nc1NCc1ccc(OC)cc1	3.9%
COc1ccc(C[N+](C)(C)N)cc1OC	2.2%[11.4 µM]
CCN(CC)c1ccc(C2CC(=O)NC3=C2C(=O)CC(C)(C)C3)cc1 (stereo not drawn)	3.1%
O=C(O)C1C2C=CC(O2)C1C(=O)Nc1ccccc1C(F)(F)F (stereo not drawn)	-14.9%
C=CCN=C(NC#N)SCC(=O)c1cccc(OC)c1	3.7%
C=CCSc1nnc(-c2ccccc2NC(=O)CC)c(=O)[nH]1	1.2%
COC(=O)CNC(=O)Cc1c(F)cccc1Cl	13.1%
Cc1noc(/C=C/NCc2cccnc2)c1S(=O)(=O)N(C)CC(=O)N1CCc2ccccc21	?
O=C(COC(=O)c1ccc(S(=O)(=O)N2CCOCC2)cc1)NC1CCCCCC1	2.2%
O=C(CSc1ccccn1)N1CCN(C(=O)CSc2ccccn2)CC1	-3.4%
CCc1ccc(-c2nc(CN3CCC(C(=O)N4CCN(c5ccccn5)CC4)CC3)c(C)o2)cc1	2.3%
Cc1csc(NC(=O)C(CC(C)C)NS(=O)(=O)c2ccc3c(c2)oc(=O)n3C)n1 (stereo not drawn)	2.6%
CC(=O)Nc1ccc(S(=O)(=O)NC(CC(=O)NCCCN2CCOCC2)C(C)C)cc1 (stereo not drawn)	0.2%
O=C1NC(c2ccccc2)(C(F)(F)F)SC2=NCCCN12 (stereo not drawn)	12.6%
CCOC(=O)N1CCC(C(N)=O)CC1	15.2%
CCOc1ccc(-c2cc(CCCC(=O)Nc3cc(OC)ccc3OC)no2)cc1	-15.0%
Cc1cc(NC(=O)COC(=O)C2COc3ccccc3O2)no1 (stereo not drawn)	1.0%

Going on with the list.
SMILES	HSD17B inhib
CCCCn1c2nc3ccccc3nc2c2c(=O)n(C(C)CC)cnc21 (stereo not drawn)	3.16µM*
O=C(Cn1cnc2ccccc2c1=O)NCc1ccco1	1.4%
O=C(O)C1CCCCC1C(=O)Nc1nc(-c2cccs2)cs1 (stereo not drawn)	-21.1%
CSc1ccc(S(=O)(=O)NCCOc2ccccc2C)cc1	-29.6%
Cn1c(=O)c2c(nc(SCC(=O)OCc3ccccc3)n2C)n(C)c1=O	-5.9%
CC(C)NS(=O)(=O)c1cc(C(=O)O)ccc1Cl	5.0%
COc1cc2c(cc1NC(=O)CN1CCN(S(=O)(=O)c3ccc(F)cc3)CC1)oc1ccccc12	3.16µM*
CC(=O)c1ccc(NS(=O)(=O)c2ccccc2)cc1	-13.8%
Clc1cccc(Cl)c1COc1ccccn1	10.5%
CCCn1nnnc1SCC(=O)Nc1nnc(CC)s1	0.0%

Taken from above.
`O=C1NC(c2ccccc2)(C(F)(F)F)SC2=NCCCN12` (stereo not drawn) in HSD17B inhib has 12.6%
`CN(C)CCCNC(=O)c1ccc(-c2ccccc2)cc1` in HSD17B inhib has 0.7%

(further entries)
SMILES	HSD17B inhib
CCOCCCNC(=O)CN1C(=O)CSc2cc(S(=O)(=O)N3CCCCCC3)ccc21	4.3%
CCOc1ccccc1NC(=O)CCSc1nc2n[nH]c(C)c2c(=N)n1-c1ccccc1Cl	?
CC(NC(=O)Cc1ccc(F)cc1)C(c1cccs1)N1CCN(C)CC1 (stereo not drawn)	1.0%
CC(=NCc1ccco1)c1c(C)[nH]n(-c2nc3ccccc3s2)c1=O	?
O=c1[nH]c(CN2CCN(c3ccccc3)CC2)nc2ccccc12	-18.4%
O=C(Cn1cnnn1)Nc1ccccc1Cc1ccccc1	13.9%
COc1cc(-c2cccs2)cc(=O)c2c(C)oc(C)c12	?
CSc1nc(C)c2cc(C)oc2n1	10.5%
CCCCN(CCCNC(=O)C1CCN(S(=O)(=O)CC)CC1)c1ccccc1	-3.3%
CC1(C)CC(n2c(=S)[nH]c3ccccc3c2=O)CCO1 (stereo not drawn)	-3.9%

Arranged by molecular weight (low to high): part of the list above
SMILES	HSD17B inhib
COc1cc(-c2cccs2)cc(=O)c2c(C)oc(C)c12	?
CC(=NCc1ccco1)c1c(C)[nH]n(-c2nc3ccccc3s2)c1=O	?
CCCCN(CCCNC(=O)C1CCN(S(=O)(=O)CC)CC1)c1ccccc1	-3.3%
